Bioassay records (PubChem)
TRPML1 inh – qHTS for Inhibitors of the Human Mucolipin Transient Receptor Potential 1 (TRPML1). 390,000 compounds, 0.02% hits. TRPML1-inducible cells, Ca2+ dye fluorescence, FDSS; active compounds read low; inhibition of EC80 agonist-evoked calcium signal. Mucolipin-1 (Homo sapiens), Q9GZU1. activity change, negative = inhibition, % (no concentration beside the values); in the data active means activity change below about -50%; inconclusive means about -30% to -50%; inactive means above about -30%;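 also: stimulus is agonist 54-4 at its EC80 concentration; % is scaled to controls: 0 for no effect and ±100 for the full control effect; compound concentration not given in the record; the text of the record puts the active cut at -80%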
Target sequence (Q9GZU1 whole entry, looked up): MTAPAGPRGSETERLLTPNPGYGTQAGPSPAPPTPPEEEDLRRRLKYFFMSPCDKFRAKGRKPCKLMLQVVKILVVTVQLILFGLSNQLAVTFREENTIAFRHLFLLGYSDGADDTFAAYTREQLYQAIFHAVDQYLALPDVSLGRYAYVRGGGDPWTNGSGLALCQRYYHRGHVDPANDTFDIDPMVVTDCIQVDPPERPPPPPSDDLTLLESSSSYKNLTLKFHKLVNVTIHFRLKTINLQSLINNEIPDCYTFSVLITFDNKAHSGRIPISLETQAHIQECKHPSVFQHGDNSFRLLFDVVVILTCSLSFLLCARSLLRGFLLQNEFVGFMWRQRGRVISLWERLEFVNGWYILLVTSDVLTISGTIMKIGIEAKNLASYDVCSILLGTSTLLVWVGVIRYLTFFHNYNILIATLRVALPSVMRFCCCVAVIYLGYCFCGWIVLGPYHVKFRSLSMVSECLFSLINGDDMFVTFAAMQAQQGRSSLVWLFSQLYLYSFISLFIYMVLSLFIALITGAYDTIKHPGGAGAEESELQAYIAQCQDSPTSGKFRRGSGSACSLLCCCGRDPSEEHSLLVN
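TRPML1-DL cells, Tet-induced overnight (~16 h, 37 °C) at 1,500 cells/well, were loaded with Ca8 no-wash dye plus quencher for 45-90 min at room temperature. Compounds were pinned during FDSS kinetic reading; agonist 54-4 at EC80 (4 uM final) then added.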
gsp ag – qHTS for Agonist of gsp, the Etiologic Mutation Responsible for Fibrous Dysplasia/McCune-Albright Syndrome: qHTS | gsp mutant cells, cAMP HTRF, 30 min; control for the full effect not named in the record | 340,000 compounds, 0.13% hits | Potency, µM (titrated, usually from 76.9 µM), for the others: at the highest dose activation (cAMP increase), hits mostly activators; active = well fitted activation curve with a large enough effect; inconclusive = small, poorly fitted or top-dose-only effect, or another doubt; inactive = no such curve, though single readings can be large or run the other way; cell line not stated here;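 also: phosphodiesterase inhibitor Ro 20-1724 added with compounds to block cAMP breakdown; potency is read from the fitted curve at half-maximal effect; nearly all actives have a fitted effect of over 60% in size; about a fifth of the inactives were tested at one dose only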
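Cells in DMEM/10% FBS with G418 were pretreated with compounds in DMSO plus […] (300 uM stock) for 30 min at 37C. cAMP was measured by HTRF (cAMP-d2 plus anti-cAMP antibody-K) after 30 min at room temperature.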
gsp antagonist – qHTS for Antagonists of gsp, the Etiologic Mutation Responsible for Fibrous Dysplasia/McCune-Albright Syndrome: qHTS | gsp-mutant cells, cAMP HTRF, 30 min; control for the full effect not named in the record | 340,000 compounds, 0.4% hits | Potency, µM (titrated, usually from 76.9 µM), without a hit: at the highest dose activity change, negative = inhibition, most hits filed as inhibitors; active = falling curve of any shape with a large fitted effect; inconclusive = falling curve, mostly with a smaller effect; inactive = flat or rising curve; cell line not stated here;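 also: intracellular cAMP measured with PDE inhibitor Ro 20-1724 present during compound exposure; potency is read from the fitted curve at half-maximal effect; % is scaled to controls: 0 for no effect and ±100 for the full control effect; nearly all actives have a fitted effect of over 65% in size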
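G418-selected cells were plated in DMEM/10% FBS for 16-24 h at 37C, then treated with compounds plus the PDE inhibitor […] (300 uM solution added) for 30 min at 37C. Intracellular cAMP was measured by HTRF after 30 min lysis at room temperature.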
TRPML1 agonist – qHTS for Agonists of the Human Mucolipin Transient Receptor Potential 1 (TRPML1). activation, % (no concentration beside the values). Mucolipin-1 (Homo sapiens), Q9GZU1. TRPML1-expressing cells, Ca2+ dye fluorescence, FDSS; host cell line not named in the record; reference of the full effect not given here. 410,000 compounds, 0.12% hits; in the data active = activation above about 50%; inconclusive = about 30% to 50%; inactive = below about 30%; also: 0% is about no effect; the text of the record puts the active cut at 80%
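TRPML1-DL cells, Tet-induced overnight (~16 h, 37 degrees C), loaded 45-90 min at room temperature with Ca8 no-wash calcium dye plus quencher. FDSS fluorescence: 10 s baseline, compound pin-transfer, 110 s agonist read, then EC80 54-4 (4uM final) and 110 s antagonist read.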
ClpP mod – qHTS Assay for Activators of ClpP | Potency, µM (doses to about 57.5 µM), inactives show at the top dose activity change, negative = active | 340,000 compounds, 1.9% hits | purified B. subtilis ClpP, FRET peptide cleavage, 20 min | ATP-dependent Clp protease proteolytic subunit (Bacillus subtilis (strain 168)), P80244; active = well fitted falling curve with a large enough effect; inconclusive = small, poorly fitted or top-dose-only effect; inactive = no such curve, though single readings can be large or run the other way; also: potency is read from the fitted curve at half-maximal effect; the source files actives as falling curves though it sought activators and does not explain the sign; nearly all actives have a fitted effect of over 65% in size; many hits overshoot -100%
Target sequence (P80244 whole entry, looked up): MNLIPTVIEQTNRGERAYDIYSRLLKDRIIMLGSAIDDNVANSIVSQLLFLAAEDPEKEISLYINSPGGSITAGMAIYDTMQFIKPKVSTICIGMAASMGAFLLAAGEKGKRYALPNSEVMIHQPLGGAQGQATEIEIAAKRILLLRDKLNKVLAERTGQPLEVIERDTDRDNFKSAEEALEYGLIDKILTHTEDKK
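Buffer: 100 mM Tris/HCl pH8, 100 mM KCl, 0.05% low protease BSA, 2.5% glycerol, 0.01% Tween-20. ClpP 10 microg/mL final; 20 min RT; delta FRET normalized to ADEP and DMSO controls.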
Menin MLL FP FL – qHTS Assay for Inhibitors Targeting the Menin-MLL Interaction in MLL Related Leukemias: Competition With Fluorescein Labeled MLL-derived Peptide; Fluorescence polarization, fluorescein-MLL peptide displacement from menin; FP activity change, % at 61.4 µM; 290,000 tested, under 10 active; AID 1766, 2009; inconclusive = falling polarisation curve, or a change in total fluorescence; inactive = total fluorescence flat and polarisation flat or rising; no compound was filed as active; the % refers to the polarisation; negative = inhibition;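 also: % of control where 0% means no effect; inhibitors lower the polarisation; unlabelled MLL peptide was the positive control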
Starred values were filed as active, the others as inactive; ? = inconclusive; nt = no result given; [ ] = dose if it differs, or a comment. Outcome played no part in choosing rows. About 2.1% of those tested had a hit in this group.

SMILES,TRPML1 inh,gsp ag,gsp antagonist,TRPML1 agonist,ClpP mod,Menin MLL FP FL
CCCNC(=O)CN(Cc1ccco1)S(=O)(=O)c1ccc(OCC)cc1,-15,-20%,12%,0.1,2.6%,nt
Cc1cc(C)c2c3c(sc2n1)C1(CCSCC1)C(C#N)=C(N)O3,58,9%,?,0.8,-1.9%,5.0
Cc1ccc(S(=O)(=O)N(C)c2ccc(C(=O)N3CCC(C(N)=O)CC3)cc2)cc1,5,-15%,4%,-0.1,-1.0%,0.1
Cc1cc2c(cc1S(=O)(=O)N1CCN(c3cccc(C)c3C)CC1)OCC(=O)N2,19,-13%,1%,-0.5,1.4%,-2.0
Cc1ccc(NC(=O)N2CCC(NC(=O)C(C)(C)C)CC2)cc1,-21,1%,20%,0.3,1.2%,-0.7
CC(NS(=O)(=O)c1ccc(OCC(=O)NCc2cccnc2)cc1)c1ccccc1 (stereo not drawn),10,12%[15.4 µM],3%,-0.2,nt,-0.5
CCc1ccc(C(=O)NNC(=O)Cn2c(=O)cnc3ccccc32)cc1,-6,11%,10%,-0.4,-0.3%,nt
CC(=O)c1c(C(C)=O)c(C)n(-c2ccc(N)cc2)c1C,-11,8%,7%[15.4 µM],1.2,-1.0%,1.1
Cn1cccc1CC(=O)N/N=C/c1cccc([N+](=O)[O-])c1,-8,9%,10%,-0.6,nt,-2.3
CNC(=O)CSc1nnc(CCc2ccccc2)n1-c1ccccc1,-7,-32%,7%,0.8,-11%,-5.0
COC(=O)c1ccccc1Nc1cc(C)nc2nc(C)nn12,15,-2%,1%,1.9,-3.3%,5.0
Cc1ccc(NC(=O)Cn2c(=O)n(Cc3ccccc3)c(=O)c3c(C)c(C(=O)N(C)C)sc32)c(C)c1,9,nt,nt,0.6,-4.7%,nt
CCOC(=O)C1CCCN(C(=O)c2sc3nc(C)nc(N(CC)CC)c3c2C)C1 (stereo not drawn),18,-6%,-3%,0.1,-2.0%,6.7
CCCCn1c(SCC(=O)Nc2ccc(F)cc2)nc2c(sc3ccccc32)c1=O,0,nt,nt,0.4,-5.9%,nt
COc1ccc(NC(=O)c2ccc3c(=O)n(-c4ccc(OC)cc4OC)c(=S)[nH]c3c2)cc1,8,32%[15.4 µM],-90%,0.0,-0.3%,-2.2
COc1cc(C(=O)Nc2ccc3c(c2)N(C(=O)CN2CCN(C)CC2)c2ccccc2CC3)cc(OC)c1OC,17,9%[15.4 µM],15%,0.2,?,4.6
COc1ccc(OC)c(CCNC(=O)Cn2cccc2C(=O)c2ccccc2C)c1,35,14%[15.4 µM],nt,2.5,nt,1.0
Cc1ccc(S(=O)(=O)NCCC(=O)N2CCC(C)CC2)cc1,7,5%,4%,-0.3,0.0%,nt
CCc1c(C)sc(NC(=S)N2CC(C)OC(C)C2)c1C(=O)OC (stereo not drawn),73,-18%,-27%,4.5,1.1%,-1.5
COc1cccc(C2=NOC(C(=O)NC(C)(C)C)C2)c1 (stereo not drawn),39,3%,10%,0.9,-2.6%,2.3
COc1ccc(CCNC(=O)C2CCCN(c3ncnc4c3nc3n4CCCCC3)C2)c(OC)c1 (stereo not drawn),2,-2%,-14%,0.2,-2.5%,-3.3
Cc1ccccc1OCC(=O)NC(=S)Nc1ccc(N2CCOCC2)c(Cl)c1,70,-6%,6%,2.0,-2.1%,-4.0
COCCCNC(=S)Nc1ccc(C)cc1[N+](=O)[O-],1,-54%[inhibitor],7%,3.8,0.7%,-1.5
COc1ccc(-c2nnc(SCC(=O)c3cccs3)n2-c2ccc(Cl)cc2)cc1,1,-10%,?,-0.2,1.9%,3.0
O=c1cc(Cl)[nH]c(=O)n1Cc1ccccc1,-8,10%[15.4 µM],0%,-0.6,-3.5%,-1.4
COc1ccccc1NC(=O)CN1C(=O)CSC(C)C1=O (stereo not drawn),-8,24%,3%,-0.2,1.4%,3.8
COc1ccc(-c2noc(-c3ccc(NCC4CCCO4)c([N+](=O)[O-])c3)n2)cc1OC (stereo not drawn),-6,nt,nt,-0.8,1.8%,nt
CCOC(=O)CSc1nc2sc(C(=O)O)c(C)c2c(=O)[nH]1,3,?,6%,-0.4,?,-2.5
O=[N+]([O-])c1ccc(CSc2ccc(S(=O)(=O)N3CCCC3)cn2)cc1,42,-31%[inhibitor],-4%,0.8,0.4%,nt
CCOc1ccc(NC(=O)c2ccc3c(c2)CCN3S(C)(=O)=O)cc1,4,-15%,8%,1.2,-4.8%,-0.8

A stretch taken from the entries so far:
SMILES,TRPML1 inh,gsp ag,gsp antagonist,TRPML1 agonist,ClpP mod,Menin MLL FP FL
O=[N+]([O-])c1ccc(CSc2ccc(S(=O)(=O)N3CCCC3)cn2)cc1,42,-31%[inhibitor],-4%,0.8,0.4%,nt
CCOc1ccc(NC(=O)c2ccc3c(c2)CCN3S(C)(=O)=O)cc1,4,-15%,8%,1.2,-4.8%,-0.8

Following part:
SMILES,TRPML1 inh,gsp ag,gsp antagonist,TRPML1 agonist,ClpP mod,Menin MLL FP FL
CNc1nc(Cl)nc(Nc2ccccc2)n1,3,-14%,2%,0.5,0.5%,3.1
O=C(OCC(=O)c1cccs1)c1ccc([N+](=O)[O-])o1,3,26%,13%,-0.1,nt,-4.6
Clc1cccc2sc(N3CCCCC3)nc12,9,?,-27%,-0.2,0.2%,1.7
Cc1cc(Cl)c2oc(C(=O)NC3CCC(O)CC3)c(C)c2c1 (stereo not drawn),-3,-1%,8%,0.3,-8.7%,1.7
COc1ccc(C(=O)COc2ccccc2C(=O)Nc2ccccc2)cc1,60,-15%,10%,1.6,-7.8%,1.0
COc1cc2cc(Oc3ccc4ccc(=O)oc4c3)c(=O)oc2cc1OC(=O)/C=C/c1ccccc1,-15,nt,4%,0.5,-14%,-0.5
Cc1cccc(NS(=O)(=O)c2cc(OCC(N)=O)c(C)cc2Cl)c1,5,20%,-21%,1.1,-1.8%,0.1
CCn1cc(/C=N/NC(=O)COc2cccc3cccnc23)c2ccccc21,-2,-3%,2%,-0.7,-2.4%,0.3
CN(C)c1ccc(N/C=C/C(=O)c2ccccc2)cc1,3,9%,-11%,-0.1,-0.8%,0.2
Cc1ccsc1C(=O)N1CCN(C(=O)c2ccco2)CC1,-5,-51%[inhibitor],13%,-0.4,0.6%,nt
CCC/C(O)=C1\C(=O)CC(C)(C)CC1=NCCO,19,-33%[inhibitor],13%,1.5,-0.5%,0.2
CCOc1ccccc1CNC(=O)c1sc2ncccc2c1-n1cccc1,29,nt,nt,2.1,-2.8%,nt
COc1cc(/C=N/NC(=O)c2ccc(-n3cccc3)cc2)ccc1O,17,?,-12%,0.9,-5.5%,3.8
Cc1ccc(NC(=O)c2nc3nccc(C)n3n2)cc1S(=O)(=O)N1CCCCC1,-9,6%,-2%,-1.1,-3.2%,nt
COC(=O)C1(C(C[N+](=O)[O-])c2ccc(C)cc2)C(=O)NCC1c1ccco1 (stereo not drawn),-2,-2%[15.4 µM],12%,-0.2,0.0%,5.9
O=C(NCc1ccccc1F)C1CCCN(C(=O)N2CCOc3ccccc32)C1 (stereo not drawn),2,nt,nt,-0.7,-4.0%,nt
COc1ccc(Cl)cc1NC(=O)C[n+]1cccc(C)c1,7,-3%,10%,1.0,0.9%,8.8
O=[N+]([O-])c1ccn(-c2nc(-c3ccccc3)cc(C(F)(F)F)n2)n1,-2,7%,-8%,0.1,nt,0.0
COc1ccccc1-c1nnn(CC#N)n1,18,?,-6%,-0.1,-2.6%,-7.6
O=C(O)CCCNS(=O)(=O)c1cccs1,54,2%,4%,0.0,-0.8%,-1.5
O=C(O)CCC(=O)Nc1ccc(S(=O)(=O)Nc2nccs2)cc1,0,nt,0%,-0.5,1.0%,1.4
COC(=O)COc1cccc2c(=O)n(CC(=O)Nc3ccc4c(c3)OCCO4)ccc12,-5,7%,-5%,1.4,3.0%,2.8
CCc1ccc(NC(=O)C(Cc2ccccc2)NS(=O)(=O)c2ccc3c(c2)CCN3C(C)=O)cc1 (stereo not drawn),12,nt,nt,1.4,0.8%,nt
COc1cc(NC(=O)c2cccnc2SC)cc(OC)c1OC,1,3%[15.4 µM],12%,-0.6,nt,-5.3
Nc1ncnc2nc(Sc3ccc(Cl)cc3)[nH]c12,4,-15%,2%,-0.4,-1.9%,1.3
COC(C(=O)Nc1ccc(F)cc1F)c1ccccc1 (stereo not drawn),-5,-14%,-1%,-0.3,0.7%,4.3
COc1ccc(C2=NN3C(=O)c4c(ccc(OC)c4OC)C3C2)cc1 (stereo not drawn),-18,-2%,-4%,-0.4,-4.8%,4.1
Nc1nn(-c2ccccc2)nc1C(=O)OCc1ccccc1Br,2,nt,nt,1.6,3.5%,nt
O=C(CN1C(=O)NC2(CCCC2)C1=O)Nc1ccc(F)c(F)c1F,-20,-27%,4%,-0.6,-0.2%,0.5
COC(=O)CCC(=O)OC1(C)C(=O)C2=CN(CCc3c[nH]c4ccccc34)C(c3ccc(OC)cc3)=CC2=C(Br)C1=O (stereo not drawn),-11,nt,-15%,3.7,-0.9%,1.5[11.7 µM]
Nc1nc(N)c(-c2ccccc2)s1,nt,nt,nt,-0.2,-1.2%,-1.3
O=S1(=O)CC(N2CCC(Cc3ccccc3)CC2)CN1CCc1ccccc1 (stereo not drawn),-3,nt,nt,0.2,0.3%,nt
CC(=O)OC(C(=O)NCc1ccc2c(c1)OCO2)c1ccccc1Cl (stereo not drawn),1,-1%,-6%,0.5,0.4%,-3.7

3 compounds already listed, ordered by the value under Menin MLL FP FL, highest first:
SMILES	TRPML1 inh	gsp ag	gsp antagonist	Menin MLL FP FL
COC(=O)COc1cccc2c(=O)n(CC(=O)Nc3ccc4c(c3)OCCO4)ccc12	-5	7%	-5%	2.8
Nc1ncnc2nc(Sc3ccc(Cl)cc3)[nH]c12	4	-15%	2%	1.3
COc1cc(NC(=O)c2cccnc2SC)cc(OC)c1OC	1	3%[15.4 µM]	12%	-5.3
